# StopGo reporter = FMDV 2A StopGo reporter, luciferase signal | human cells with a luciferase reporter of 2A StopGo recoding; control for the full effect not named in the record | Potency, µM (titrated, usually from 57.9 µM), for inactives: top-dose signal change, negative = less light | actives 1.2% (n = 410,000); active = well fitted falling curve with a large enough effect; inconclusive = small, poorly fitted or top-dose-only effect; inactive = no such curve, though single readings can be large or run the other way; tested in HEK293T cells; also: % is scaled to controls: 0 for no effect and ±100 for the full control effect; nearly all actives have a fitted effect of over 45% in size; luciferase light after 4 h
# NS1 inh = inhibitors of influenza NS1 protein function; S. cerevisiae slowed by influenza A NS1, growth recovery by OD600; Potency, µM (top dose mostly 46.1 µM), inactives show top-dose activity, positive = more growth; actives 0.4% (n = 270,000); AID 2326; active means well fitted rising curve with a large enough effect; inconclusive means small, poorly fitted or top-dose-only effect; inactive means no such curve, though single readings can be large or run the other way; also: nearly all actives have a fitted effect of over 50% in size
#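 Compounds were scored for reversing the slow growth caused by influenza A NS1 in S. cerevisiae, measured by optical density at 600 nm. Assay medium contained 2% galactose at pH 6.0; NS1-free yeast of the same strain were the positive control.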
# RE007 growth inh = less growth of the S. pombe RE007 Vpr strain. S. pombe RE007 Vpr strain, BacTiter-Glo ATP luminescence, 24 h; control for the full effect not named in the record. Potency, µM (top dose mostly 92.2 µM), for the others: at the highest dose activity change, negative = less growth. actives 0.21% (n = 360,000). AID 651644; active = well fitted falling curve with a large enough effect; inconclusive = small, poorly fitted or top-dose-only effect; inactive = no such curve, though single readings can be large or run the other way;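 also: % is scaled to controls: 0 for no effect and ±100 for the full control effect; nearly all actives have a fitted effect of over 50% in size; the assay follows cell death caused by Vpr and the record does not say whether a fall means rescue or toxicity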
#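 Fission yeast RE007 carrying one integrated HIV-1 vpr copy, seeded at OD 0.01 in PMG+AL medium with 23 nL pinned compound. Grown 24 h at 30 degrees; viability read by BacTiter-Glo luminescence after 5 min.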
# Marburg entry inh = blocks Marburg virus binding to or entry into cells; Marburg virus pseudotyped entry inhibition, cell reporter; control for the full effect not named in the record; about a third of the inactives were read at about 46 µM; Potency, µM (series often up to 37.8 µM), for the others: at the top dose activity change, negative = inhibition, most hits filed as inhibitors; actives 1.8% (n = 300,000); AID 540276; active = well fitted inhibition curve with a large enough effect; inconclusive = small, poorly fitted or top-dose-only effect, or effect the other way; inactive = flat fitted curve, though single readings scatter; tested in HEK293 cells; about a fifth of its hits are not listed in these tables; also: % is scaled to controls: 0 for no effect and ±100 for the full control effect; luciferase read-out
# Cruzain inh Det = cruzain (T. cruzi) inhibition with detergent; Potency, µM, without a hit: max response, negative = inhibition, actives largely listed as inhibitors; purified cruzain, Z-FR-AMC fluorescence, 0.01% Triton; P25779; actives 0.43% (n = 200,000); AID 1478;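 also: plate controls were neutral wells for no effect and buffer without enzyme for full effect; nearly all actives have a fitted effect of over 40% in size; top concentration of the series not given in the record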
# Target sequence (P25779 123-467 limits assumed): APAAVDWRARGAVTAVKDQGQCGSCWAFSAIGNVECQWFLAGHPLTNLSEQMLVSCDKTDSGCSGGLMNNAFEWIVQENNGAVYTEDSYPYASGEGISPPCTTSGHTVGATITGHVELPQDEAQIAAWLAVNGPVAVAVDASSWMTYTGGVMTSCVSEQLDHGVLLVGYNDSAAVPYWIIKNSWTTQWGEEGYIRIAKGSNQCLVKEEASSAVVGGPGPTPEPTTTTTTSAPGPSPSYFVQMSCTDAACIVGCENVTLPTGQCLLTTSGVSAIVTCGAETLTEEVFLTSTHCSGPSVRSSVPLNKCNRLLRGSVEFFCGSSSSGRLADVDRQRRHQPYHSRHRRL
#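 Compounds were screened in titration against cruzain (1.5 nM) with 0.01% Triton X-100 to counter colloidal aggregation. Activity was the AMC fluorescence increase over 60 s after adding 2 uM Z-FR-AMC at pH 5.5.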
# SARS PLpro yeast = SARS-CoV PLP inhibition in yeast | S. cerevisiae expressing SARS-CoV PLpro, growth rescue; control for the full effect not named in the record | Potency, µM (titrated, usually from 32.9 µM), for the others: top-dose activity, positive = growth rescue | actives 0.19% (n = 330,000); active means well fitted rising curve with a large enough effect; inconclusive means small, poorly fitted or top-dose-only effect; inactive means no such curve, though single readings can be large or run the other way; also: 0% is about no effect; nearly all actives have a fitted effect of over 55% in size; growth read by luminescence after 48 h
# Cruzain inh noDet = inhibitors of Trypanosoma cruzi cruzain without detergent. Potency, µM, inactives show max response, negative = inhibition, hits mostly inhibitors. purified cruzain, Z-FR-AMC fluorescence, no detergent. P25779. actives 2.3% (n = 200,000);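 also: plate controls were enzyme without inhibitor for no effect and buffer without enzyme for full effect; nearly all actives have a fitted effect of over 40% in size; top concentration of the series not given in the record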
#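 Purified cruzain at 1.5 nM, pre-incubated 15 min with compound at room temperature in 100 mM sodium acetate pH 5.5, 5 mM DTT, 0.00005% Triton X-100. Reaction started with 2 uM Z-FR-AMC; AMC fluorescence increase over 60 s gives rate.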
# LASV entry inh = blocks Lassa virus binding to or entry into cells. Potency, µM (titrated, usually from 37.9 µM), without a hit: at the highest dose activity change, negative = inhibition, most hits filed as inhibitors. Lassa virus pseudotype entry inhibition, cell reporter; control for the full effect not named in the record. actives 1.2% (n = 300,000); active means well fitted inhibition curve with a large enough effect; inconclusive means small, poorly fitted or top-dose-only effect, or effect the other way; inactive means flat fitted curve, though single readings scatter; tested in HEK293 cells; also: % is scaled to controls: 0 for no effect and ±100 for the full control effect; nearly all actives have a fitted effect of over 50% in size; luciferase read-out
# * = called active by the depositor; ? = inconclusive; · = not tested or not shown; [ ] = dose if it differs, or a comment. Unless noted, calls follow the shape of the dose curve; as a rule, active = well fitted curve in the direction sought with a large enough effect; inconclusive = small, poorly fitted or top-dose-only effect, or another doubt; inactive = no such curve, though single readings can be large; an effect the other way counts as inactive or inconclusive. Potency is read from the fitted curve at half-maximal effect.
# Sample of the layout:
SMILES,StopGo reporter,NS1 inh,RE007 growth inh,Marburg entry inh,Cruzain inh Det,SARS PLpro yeast,Cruzain inh noDet,LASV entry inh
CCS(=O)(=O)Nc1ccc(C2=NN(S(=O)(=O)c3ccc(F)cc3)C(c3ccco3)C2)cc1 (configuration not stated),-16.8%,16.4%,-2.0%,18.3µM*,-11.2%,-1.0%,-0.4%,7.3µM*
Cc1c(C(=O)c2no[n+]([O-])c2C(=O)c2cnn(C)c2C)cnn1C,39.8µM*,-76.3%,-19.9%,-2.5%,-8.5%,-13.4%,-11.8%,2.3%
COc1ccc(NC(=S)NC2CC3CCCC(C2)N3C2CC2)cc1 (configuration not stated),4.3%,0.5%,12.3%,?,·,-0.8%,·,-2.8%

# The whole of this part, from the start:
SMILES,StopGo reporter,NS1 inh,RE007 growth inh,Marburg entry inh,Cruzain inh Det,SARS PLpro yeast,Cruzain inh noDet,LASV entry inh
CCS(=O)(=O)Nc1ccc(C2=NN(S(=O)(=O)c3ccc(F)cc3)C(c3ccco3)C2)cc1 (configuration not stated),-16.8%,16.4%,-2.0%,18.3µM*,-11.2%,-1.0%,-0.4%,7.3µM*
Cc1c(C(=O)c2no[n+]([O-])c2C(=O)c2cnn(C)c2C)cnn1C,39.8µM*,-76.3%,-19.9%,-2.5%,-8.5%,-13.4%,-11.8%,2.3%
COc1ccc(NC(=S)NC2CC3CCCC(C2)N3C2CC2)cc1 (configuration not stated),4.3%,0.5%,12.3%,?,·,-0.8%,·,-2.8%
CCN(CC)CCn1c(NCc2cccc(OC)c2OC)nc2ccccc21,0.0%,-4.3%,-2.4%,?,-2.2%,-1.0%,-5.1%,-3.1%
Nc1ccccc1SCc1cc([N+](=O)[O-])cc2c1OCOC2,10.7%,-4.1%,31.9%,3.4%,-3.6%,-9.4%,-1.2%,2.4%
CC(=O)/C(N=Nc1ccc2c(c1)OCCO2)=C(\C)O,1.26µM*,·,0.9%,?,·,-3.1%,·,?
Cc1ccc(NC(=O)CCC(=O)NNC(=O)NC23CC4CC(CC(C4)C2)C3)cc1C,-15.8%,0.7%,3.6%,-25.5%[46.1 µM],·,-0.2%,·,1.3%[46.1 µM]
CCCSc1nc(C)c(-c2csc(C(C#N)=C3CCCC3)n2)cc1C#N,·,16.1%,-2.6%,-11.7%,-13.6%,0.4%,?,-2.2%
Cc1ccccc1COc1ccc(-c2nn[nH]n2)cc1,37.2%[activator],-51.3%,6.9%,?,·,-1.2%,·,?
Cc1ccc2c(c1)N(CC(=O)NCC1CCCO1)C(=O)C(C)O2 (configuration not stated),-18.7%,4.0%,16.3%,1.4%,2.2%,5.7%,-2.9%,11.5%
C/C(=N/N1CCN(Cc2cccc3ccccc23)CC1)c1ccco1,12.9%,9.6%,-20.6%,12.8%[46.1 µM],·,-1.9%,·,16.8%
Cc1c(Cl)cccc1-n1nnnc1-c1cccs1,-3.7%,-4.4%,-21.5%,-6.6%,-1.8%,-7.2%,-3.3%,-3.1%
CS(=O)(=O)N1CCN(C(=O)c2cc(-c3ccccc3)nc3ccccc23)CC1,-7.6%,3.1%,9.9%,5.9%,2.4%,2.3%,26.9%,10.8%
COc1cccc(NC(=O)c2ccccc2N2C(=O)C3C4C=CC(C4)C3C2=O)c1 (configuration not stated),-8.5%,10.4%,?,-7.4%,·,-1.9%,·,5.6%
O=C(OCCCN1CCCCC1)c1ccc(O)cc1,-18.1%,0.0%,4.7%,?,-1.2%,-1.5%,-8.1%,11.9%
Cc1csc2nc(COC(=O)c3ccccc3NC(=O)c3ccccc3Cl)cc(=O)n12,-8.0%,·,·,·,-1.9%,·,-2.0%,0.2%[46.1 µM]
COc1ccc(CC(=O)Nc2c(C(=O)N3CCN(c4ncccn4)CC3)oc3ccccc23)cc1,29.7%,-14.9%,-2.6%,·,·,4.8%,·,·
CCOC(=O)C1CCCN(c2c(NCCCN(C)Cc3ccccc3)c(=O)c2=O)C1 (configuration not stated),5.1%,-29.6%,-6.2%,-5.7%,3.1%,3.6%,-5.5%,-13.0%[14.3 µM]
CCCn1c(N)c(N(CCOC)C(=O)COC(=O)c2ccccc2NCCO)c(=O)[nH]c1=O,14.0%,·,-6.3%,27.4%,·,-2.4%,·,14.9%
Cn1cc(S(=O)(=O)N2CCc3ccccc32)cc1C(=O)NC(C)(C)C,?,6.1%,-4.8%,·,·,1.9%,·,·
CCOC(=O)C1CCCN(c2c(NCCCN(CC)c3ccccc3)c(=O)c2=O)C1 (configuration not stated),3.6%,-5.2%,-5.2%,16.4%,2.2%,0.5%,3.5%,7.8%
CCOc1cc(C(=O)NCC(c2ccc(N(C)C)cc2)N2CCOCC2)cc(OCC)c1OCC (configuration not stated),-21.8%,·,·,·,0.4%,·,?,-2.4%[46.1 µM]
O=c1[nH]c2nc(Cl)nc(Cl)c2[nH]1,-4.9%,·,-15.5%,-1.1%[46.1 µM],·,·,·,-3.5%[46.1 µM]
Cc1cccc(N2CCN(C(=O)c3cc4ccc5cccnc5c4[nH]3)CC2C)c1 (configuration not stated),-20.8%,·,·,·,-7.1%,·,12.6µM*,14.3%[46.1 µM]
O=C(COc1ncnc2c(Cl)cc(Cl)cc12)N1CCCCC1,10.1%,-4.8%,9.0%,-1.6%,2.5%,-5.5%,4.4%,-15.3%
CCc1ccc(-c2[nH]nc3nc(-c4ccc(OC)cc4)cc(C(=O)NCCCOC)c23)cc1,0.7%,·,·,·,-1.7%,·,-3.7%,-1.8%[46.1 µM]
CCCCC(NC(=O)Cc1c(C)c2cc3c4c(oc3c(C)c2oc1=O)CCCC4)C(=O)O (configuration not stated),-1.5%,4.5%,4.0%,·,·,0.7%,·,·
O=C(CNC(=O)c1ccc(Cl)cc1)Nc1ccccc1C(F)(F)F,8.8%,-3.9%,-0.6%,·,·,0.2%,·,·
Cc1cc(S(=O)(=O)N2CCOCC2)ccc1OCC(=O)Nc1ccc(F)cc1F,-12.2%,11.6%,1.9%,0.7%[46.1 µM],·,1.3%,·,-10.2%
N#C/C(=C(/O)c1ccc2c(c1)OCO2)c1nc2cc(C(F)(F)F)ccc2s1,-13.6%,-17.7%,-17.2%,?,·,2.6%,·,?
COc1ccc(C/C(C)=N/NC(=O)c2cccnc2)cc1,-2.8%,7.2%,-15.9%,10.0%,-1.6%,-1.9%,9.2%,9.6%
Cc1onc(-c2ccccc2)c1C(=O)N1CCCCCC1,2.5%,1.6%,7.1%,24.7%[46.1 µM],·,-0.1%,·,25.6%[46.1 µM]
O=C(Nc1nncs1)C12CC3CC(CC(C3)C1)C2,0.8%,0.1%,5.4%,?,·,-1.6%,·,4.3%[46.1 µM]
O=C(CCn1nc(-c2ccccc2)c2ccccc2c1=O)NCC1CCCO1 (configuration not stated),-5.0%,13.1%,8.1%,19.5%,1.3%,7.0%,-1.7%,-0.1%
COc1cc(C(=O)OC(C)C(=O)NC2CCCCC2C)c([N+](=O)[O-])cc1OC (configuration not stated),-10.5%,·,-14.2%,3.6%,·,1.3%,·,21.0%[46.1 µM]
CN1CCN(CCC(=O)N/N=C/c2cc3c(cc2[N+](=O)[O-])OCO3)CC1,-4.2%,-0.6%,8.3%,4.2%,·,-2.2%,·,-0.2%
COc1ccccc1OCc1ccc(C(=O)NC(C)c2ccccc2)o1 (configuration not stated),-19.6%,-6.8%,2.8%,?,·,-3.0%,·,?
CCCc1nnc(NC(=O)C(CC)OC(=O)c2cc(C)nc3ccccc23)s1 (configuration not stated),1.6%,-10.5%,-5.1%,4.9%,-9.8%,-5.1%,?,4.2%
COc1ccc(NC(=S)NCc2ccc(F)cc2)c(OC)c1,10.1%,15.1%,12.8%,·,·,-0.8%,·,·
O=[N+]([O-])c1ccc2[nH]c(O)c(N=NC(=S)NCC3CCCO3)c2c1 (configuration not stated),-16.6%,5.2%,-7.5%,10.6%,-5.6%,12.3%,4.2%,11.1%
CCN(CC)CCNC(=O)/C(=C\c1cccn1C)NC(=O)c1cccs1,-14.1%,8.4%,-0.9%,-0.4%,-9.7%,-13.9%,13.7%,3.7%
COc1ccc(-c2nnc3n(CCc4ccccc4)c(=O)c4ccccc4n23)c(OC)c1,28.2µM*,0.7%,1.4%,10µM*,-7.2%,-8.7%,6.1%,?
CCCN1C2CCCC1CC(NC(=O)c1ccccc1OCC)C2 (configuration not stated),-5.5%,-6.7%,-4.3%,-11.5%,2.9%,-2.0%,9.1%,0.4%
COc1ccc(CCN(Cc2ccccn2)C(=S)Nc2ccccc2Cl)cc1OC,-22.0%,·,-8.2%,-18.2%[46.1 µM],·,5.3%,·,?
Cc1ccc2[nH]c(=O)cc(C(=O)OCC(=O)c3ccccc3)c2c1,0.0%,-18.3%,-0.9%,31.2%,-2.4%,-3.7%,-6.0%,-28.6%
CCCc1c(C)[nH]c2ccc(NC(C)=O)cc2c1=O,·,15.6%,7.1%,-1.0%,-0.4%,9.7%,-2.0%,-27.9%
O=C(CN(C(=O)CSc1nc2ccccc2o1)c1ccccc1F)NC1CCCCC1,-14.2%,8.4%,-6.1%,2.6%,-6.3%,-3.0%,-1.8%,10.6%
O=C(NCc1ccccc1Cl)C1CCN(S(=O)(=O)c2cccs2)CC1,1.7%,-5.9%,-9.6%,-24.1%[46.1 µM],·,3.8%,·,-8.4%
Cc1cc(N(CC(=O)NC(C)C)S(C)(=O)=O)ccc1Br,-15.0%,-3.8%,-15.2%,?,-0.7%,12.7%,0.3%,-8.5%
COCCN1C(=O)C(O)=C(C(C)=O)C1c1ccc(F)cc1 (configuration not stated),9.3%,8.2%,10.9%,-3.2%,-6.9%,4.0%,1.6%,1.1%
O=C(c1cc(COc2ccc3ncccc3c2)on1)N1CCCCCC1,-5.9%,-9.6%,-6.2%,?,·,-0.3%,·,-22.7%[46.1 µM]
CCCC(C(=O)NC1CCCC1)N(CC1CCCO1)C(=O)c1snc(C(N)=O)c1N (configuration not stated),15.0%,-1.7%,-7.6%,-9.9%,-0.2%,1.8%,-3.6%,1.3%

# Screening results as filed in PubChem BioAssay.
